PLK1 kinase inh: inhibitors of human PLK1 kinase; recombinant PLK1 kinase, TR-FRET peptide phosphorylation; AID 619; P53350; 0.53% of 97,000 active; inhibition, % at 10 µM;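 active = inhibition of 50% or more in the single-concentration screen; inactive = inhibition below 50%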;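 note: 0% = DMSO max control and 100% = H-89 dihydrochloride min control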
Target sequence (P53350 whole entry, looked up): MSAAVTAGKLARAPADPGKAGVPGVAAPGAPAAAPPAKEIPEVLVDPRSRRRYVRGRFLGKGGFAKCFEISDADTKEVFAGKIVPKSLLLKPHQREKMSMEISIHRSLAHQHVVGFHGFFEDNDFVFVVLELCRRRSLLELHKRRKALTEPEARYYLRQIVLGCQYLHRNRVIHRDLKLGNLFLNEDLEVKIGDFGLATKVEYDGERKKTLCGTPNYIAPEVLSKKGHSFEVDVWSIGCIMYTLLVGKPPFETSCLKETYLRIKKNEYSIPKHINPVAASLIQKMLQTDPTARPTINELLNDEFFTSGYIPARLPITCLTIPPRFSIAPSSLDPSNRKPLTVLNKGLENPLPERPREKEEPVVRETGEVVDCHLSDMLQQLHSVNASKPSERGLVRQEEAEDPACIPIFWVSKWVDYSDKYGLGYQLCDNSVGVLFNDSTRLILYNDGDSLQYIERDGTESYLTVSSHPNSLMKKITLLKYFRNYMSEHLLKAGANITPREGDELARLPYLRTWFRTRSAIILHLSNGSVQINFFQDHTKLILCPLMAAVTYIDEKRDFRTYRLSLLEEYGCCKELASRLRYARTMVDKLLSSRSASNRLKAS
EphB4 antag: EphB4-ephrin-B2 interaction antagonism | P54760 | EphB4 LBD / TNYL-RAW-Alexa532 peptide, fluorescence polarization | inhibition, % at 7 µM | 0.15% of 97,000 active;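 active = inhibition above the screen-wide mean inhibition plus 3 SD, cut at about 15% in these data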;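 note: 0% = DMSO wells and 100% = excess unlabeled TNYL-RAW peptide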
PLAP act: human PLAP activation; 1.2% of 96,000 active; purified PLAP enzyme, luminescent substrate read-out; active compounds read high; P05187; activation fold at 20 µM; in the data active = activation fold above about 2
Rev-RRE block: disrupts HIV-1 Rev binding to RRE RNA | AID 704 | inhibition, % at 8 µM | 0.79% of 97,000 active | Rev peptide-RRE RNA binding, FRET | P05866;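 active = inhibition above the screen-wide mean plus 3 SD, cut at about 35% in these data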;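 note: 0% = median DMSO wells and 100% = median Neomycin B control wells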
Target sequence (P05866 whole entry, looked up): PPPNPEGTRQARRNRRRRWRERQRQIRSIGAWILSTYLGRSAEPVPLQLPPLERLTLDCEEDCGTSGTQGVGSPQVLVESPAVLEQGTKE
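assay system = Cy5-tagged RRE RNA duplex with fluorescein-tagged Rev peptide | incubation = 5 + 15 min at 25 °C | also added = labelled Rev peptide | measure = % inhibition of FRET ratio versus controls | benchmarks = DMSO wells as 0% and neomycin B wells as 100% inhibition | measured by = FRET fluorescence readout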
Plk1 PBD FP: inhibitors of human Plk1 polo box domain binding; P53350; Plk1 PBD phosphopeptide binding, fluorescence polarization; inhibition, %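 (tested at about 20 µM)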; 0.13% of 97,000 active; in the data active = inhibition above about 34%, passing the limit was not always enough
* marks the source's active call; other numbers are inactive results; [ ] = another dose, or the depositor's remark. A portion of the library (hit frequency here may not be typical).

The opening two compounds, ahead of the listing:
Molecule	PLK1 kinase inh	EphB4 antag	PLAP act	Rev-RRE block	Plk1 PBD FP
COc1cccc(OC)c1C(=O)Nc1ccc2c3c(cccc13)CC2	-11	-5	1	1	-18
COc1ccccc1CNC(=O)CN1CCC(NC(=O)c2ccccc2F)CC1	1	-3	1.1	2	12

Main list, from the start:
Molecule	PLK1 kinase inh	EphB4 antag	PLAP act	Rev-RRE block	Plk1 PBD FP
COc1cccc(OC)c1C(=O)Nc1ccc2c3c(cccc13)CC2	-11	-5	1	1	-18
COc1ccccc1CNC(=O)CN1CCC(NC(=O)c2ccccc2F)CC1	1	-3	1.1	2	12
CCCCCOC(=O)C1=C(C)Nc2nnnn2C1c1ccc(OC)c(OC)c1OC (stereo unspecified)	-11	-10	1.4	10	-11
O=C(Nc1ccccc1N1CCN(C(=O)c2ccc(Cl)cc2)CC1)c1cc(Br)ccc1Cl	-11	0	1.1	6	9
O=c1[nH][nH]c(C(F)(F)F)c1C=Nc1cccc(Cl)c1	-12	-1	1.1	7	-2
COc1ccc(S(=O)(=O)Nc2cc3c4c(oc3c3ccccc23)CC(C)(C)CC4=O)cc1	-6	4	1	3	15
COc1ccc([N+](=O)[O-])cc1NC1C2CC3CC(C2)CC1C3 (stereo unspecified)	-9	1	1	13	-8
Cc1ccc(S(=O)(=O)N2CCN(C(=O)C3COc4ccccc4O3)CC2)cc1C (stereo unspecified)	-3	-1	0.9	5	-14
O=C(c1ccco1)N1CCN(c2nc(-c3ccc(F)cc3)cs2)CC1	1	3	1	-3	-2
O=C(Cn1c(O)c(/C=C2\C=Nc3ccccc32)sc1=O)Nc1ccc2c(c1)OCO2	-6	2	1	14	23
NC(=O)C1(NC(=O)[C@@H]2CC3(CC(c4cccc(NC(=O)[C@@H]5CCC(=O)N5)c4)=NO3)CN2C(=O)c2cnccn2)CC1 (stereo partly specified)	-9	-4	1.1	2	-11
CCCNC(=O)CC(NS(=O)(=O)c1ccc(Cl)cc1)c1ccco1 (stereo unspecified)	-5	-1	0.8	2	-4
Cc1cccc(NC(=O)CSc2n[nH]c(-c3ccncc3)n2)c1	24	-4	1	5	13
CCN(C(=O)CSc1nnc(Cc2cccc3ccccc23)n1N)C1CCS(=O)(=O)C1 (stereo unspecified)	-7	2	1.2	8	-6
CCOc1ccc2nc(NC(=O)c3ccc(S(=O)(=O)N4CCOCC4)cc3)sc2c1	1	3	0.9	3	0
O=[N+]([O-])c1ccc(N2CCN(Cc3ccccc3)CC2)c(S(=O)(=O)N2CCOCC2)c1	-8	2	1.3	4	16
CC(C)(C)NC(=O)Cn1nnc(-c2ccccc2NC(=O)c2cnccn2)n1	-7	-5	1	5	9
O=C(Cn1c(SCc2ccccc2)nc2ccccc21)N1CCOCC1	-5	1	0.9	3	-2
CC(C)C(NS(=O)(=O)c1cccs1)C(=O)NCCN1CCN(c2ccccc2)CC1 (stereo unspecified)	-10	3	1.2	6	-13
O=C(NC1CCCCC1)C(c1ccc(F)cc1)N(C(=O)Cc1ccsc1)c1ccc(F)cc1 (stereo unspecified)	-6	-1	0.7	5	-17
O=C(CCC(=O)OCc1ccc(Cl)cc1)Nc1cccc([N+](=O)[O-])c1	-11	-1	1.2	17	-2
Cc1cccc(C(=O)Nc2cccc(C(=O)N3CCOCC3)c2)c1	-1	1	0.9	-4	7
CN(C)c1cc[n+](CC(=O)Nc2ccc([N+](=O)[O-])cc2Cl)cc1	-10	5	0.8	4	18
O=C(Nc1ncc2c(n1)-c1ccccc1CC2)c1cccc(Cl)c1	8	4	0.8	3	-17
CC1=N/C(=C\c2ccc([N+](=O)[O-])cc2)C(=O)N1c1ccc(Br)c(C)c1	-8	3	0.9	8	3
O=C(N/N=C/c1ccc(Br)s1)c1ccccc1[N+](=O)[O-]	-3	0	1.1	2	-16
COC(=O)c1nnn(-c2nonc2N)c1CSc1nc2ccccc2o1	-6	-9	1	5	12
CCN(CC)c1ccc(/C=N/N2CCN(Cc3ccc(C)cc3)CC2)c(O)c1	-13	-3	1	4	-5
C=CCSc1ncccc1C(=O)NCc1ccc(C)cc1	-8	2	1	-1	23
CC(C)C(NC(=O)c1ccc(C(C)(C)C)cc1)C(=O)O (stereo unspecified)	-11	4	1.1	1	-30

Exported with values under each structure: entries from further up.
Results follow in this order: PLK1 kinase inh	EphB4 antag	PLAP act	Rev-RRE block	Plk1 PBD FP
> COc1ccc(S(=O)(=O)Nc2cc3c4c(oc3c3ccccc23)CC(C)(C)CC4=O)cc1
→ -6	4	1	3	15
> COc1ccc([N+](=O)[O-])cc1NC1C2CC3CC(C2)CC1C3 (stereo unspecified)
→ -9	1	1	13	-8
> Cc1ccc(S(=O)(=O)N2CCN(C(=O)C3COc4ccccc4O3)CC2)cc1C (stereo unspecified)
→ -3	-1	0.9	5	-14

(list continues)
Molecule	PLK1 kinase inh	EphB4 antag	PLAP act	Rev-RRE block	Plk1 PBD FP
CC1Cc2cc(/C(O)=C3/C(=O)C(=O)N(CCN4CCOCC4)C3c3cccc(Cl)c3)ccc2O1 (stereo unspecified)	-15	-2	1.4	-4	-16
O=C(c1ccco1)N1CCN(c2ncccn2)CC1	76*	-1	1.2	8	-9
Cc1cc(C)cc(N2C(=O)CC(Sc3nnnn3-c3ccccc3)C2=O)c1 (stereo unspecified)	-9	4	1.2	15	-22
NC(=O)[C@H](Cc1cc2ccccc2s1)NC(=O)[C@@H]1CC2(CC(c3cccc(NC(=O)[C@@H]4CCC(=O)N4)c3)=NO2)CN1C(=O)/C=C/c1c(F)cccc1Cl (stereo partly specified)	-2	3	1.4	3	-27
CCN(CC)S(=O)(=O)c1cccc(C(=O)Nc2ccc(Cl)cn2)c1	-3	6	0.7	10	19
CC(C)NC(=O)CC1Nc2c3ccccc3nc(=S)n2C1=O (stereo unspecified)	-13	2	0.9	6	-30
Cc1ccc(-c2cc(N)n3nc(-c4ccc(C)cc4)cc3n2)cc1	-8	0	0.9	7	7
CC1CCCC(C)N1CCNC(=O)Cn1nc(-c2ccccc2)ccc1=O (stereo unspecified)	-13	5	1.4	3	-1
Cc1cc(/C=C2\SC(=S)N(Cc3ccco3)C2=O)c(C)n1-c1cccnc1	-22	-9	1.2	95*[fluorescence artefact?]	-153
CC(C)(C)n1ncc2c(=O)n(Cc3ccc(Cl)cc3Cl)cnc21	7	1	1.1	6	-1
CCOc1c2ccc(C(=O)NCc3ccc(C)cc3)cc2nn1CCOC	-10	-2	1	1	-9
CN(C)c1ccc(/C=N/N2C(=S)SC(C)(C)C2N(O)C(=O)Nc2ccc([N+](=O)[O-])cc2)cc1 (stereo unspecified)	-15	4	0.8	-4	-15
Cc1ncc(N=Nc2ccccc2Cl)c(-c2ccccc2)n1	-10	2	1	10	-6
CC(C)CNc1ncnc2c1sc1nc(N3CCOCC3)c3c(c12)CC(C)(C)OC3	-13	-6	1.2	7	-17
O=C1Nc2ccc([N+](=O)[O-])cc2C1(O)N1CCCCCC1 (stereo unspecified)	-8	6	0.8	3	-3
CC(C)OC(=O)NCCOC(=O)Nc1cccc(Cl)c1	-2	-3	1	2	4
Cc1c(NC(=O)OCCNC(=O)COc2c(Cl)cccc2Cl)sc(=S)n1C	-2	-1	1	3	-16
O=C(OCc1ccccc1)c1cccc(-c2nnc(-c3ccccc3)o2)c1	-14	5	1	10	10
COc1ccc(OC)c(-n2c(-c3ccc(C)cc3)n[nH]c2=S)c1	-1	4	0.9	1	-9
COc1cc(Cc2cnc(N)nc2N)cc(OC)c1OC	-12	-12	1.1	3	14
CS(=O)(=O)N1CC(C(=O)NC2CCCC2)Oc2ccc(Cl)cc21 (stereo unspecified)	-3	0	1.1	-2	14
CCOc1ccc(N2CC(=O)N(c3ccc(OCC)cc3)CC2=O)cc1	-5	-8	0.9	4	-11
CCOC(=O)c1sc(NC(=O)CSc2nc(C)cc(C)n2)c(C#N)c1C	-11	-1	1.2	11	-2
CC1=C(/C=C/C(=O)O)C(C)(C)CCC1	3	3	1.3	6	-17
CCOC(=O)Cc1csc(NC(=S)NC(=O)c2ccc(Cl)cc2)n1	-19	3	1.2	4	31
CCc1ccc(CSc2nccn2-c2ccccc2)cc1	-11	5	0.8	13	6
CCCNC(=O)Cn1cnc2sc(C(=O)NCCN(CC)CC)c(C)c2c1=O	-13	3	1	4	-4
CCOc1cc(/C=N/NC(=O)Cc2ccc(C(F)(F)F)cc2[N+](=O)[O-])c(Br)cc1OC	-19	-9	0.7	17	28
O=C(CCCCn1c(=O)c2ccccc2n(CC(=O)NC2CCCC2)c1=O)NC1CCCC1	-5	-4	1.3	4	16
O=c1cc(C(F)(F)F)[nH]c(=O)n1C1CCCCC1	-12	-1	1.1	9	-1

Next part.
Molecule	PLK1 kinase inh	EphB4 antag	PLAP act	Rev-RRE block	Plk1 PBD FP
Nc1cc(Cl)ccc1Oc1ccc(Cl)cc1	-6	-7	1	5	6
Cn1c(SCC(=O)N2CCCC2)nnc1-c1ccc(S(=O)(=O)N2CCCC2)cc1	-6	3	1	3	18
CCCOc1ccc(C(=O)Nc2ccc(C)cc2[N+](=O)[O-])cc1	-8	0	0.9	2	-15
CN1CCN(NC(=O)CN2C(=O)/C(=C/c3c(Cl)cccc3Cl)SC2=S)CC1	-12	3	1.8	4	-39
Cc1csc(=S)n1-c1ccccc1	-12	-9	1	6	13
COc1ccc(CCNC(=O)Cc2cc(OC)c(OC)cc2[N+](=O)[O-])cc1OC	-1	5	0.8	8	-20
CCCCCNCc1cccc(Br)c1	-6	-9	1.1	0	50
COCCNC(=O)CSc1nc2ccc(N3CCOCC3)cc2c(=O)n1Cc1ccc(OC)cc1	-14	5	1.3	-1	-20
COc1ccc(N2CCN(c3oc(Cc4cccc5ccccc45)nc3C#N)CC2)cc1	-10	12	1	3	-10
COc1ccc(NC(=O)Cn2nnc(C(N)=O)c2N)c(OC)c1	1	4	0.9	1	32
CC1(C)OC(=O)N(c2ccccn2)C1(C)O (stereo unspecified)	-2	9	1	7	-10
CCn1c(SCC(=O)OC)nc2sc3c(c2c1=O)CCC3	-4	-1	1.3	-5	2
Cc1c(C)c2ccc(Oc3ccc([N+](=O)[O-])cc3C(F)(F)F)c(C)c2oc1=O	-5	-5	0.9	11	12
CCCn1c(-c2cccs2)nc2nc3ccccc3nc21	-19	-1	0.9	6	-6
O=C(COc1ccc(F)cc1)Nc1nnc(-c2ccncc2)s1	42	3	1	29	-12
O=C(CN(c1ccccc1)S(=O)(=O)c1ccccc1)NCCSc1nc2ccccc2s1	-1	4	0.9	11	-11
CCCCC1S/C(=N/N=C/c2ccc(OC)cc2)N(Cc2ccc(OC)cc2)C1=O (stereo unspecified)	-11	-7	0.9	9	10
CC(C)(C)NC(=O)C(Cc1ccccc1)NS(=O)(=O)c1ccc2c(c1)CCC(=O)N2 (stereo unspecified)	-12	5	0.9	2	-10
CC(NC1CCCC1)C(=O)Nc1ccccc1-c1ccccc1 (stereo unspecified)	-20	-1	1	1	-27
COCCNC(=O)C1CCN(S(=O)(=O)N2CCC3(CC2)OCCO3)CC1	-20	4	1.1	7	-6
Cc1ccc(C(c2nnnn2CC2CCCO2)N2CCN(C(=O)c3ccco3)CC2)cc1 (stereo unspecified)	-8	-3	1.2	-4	8
CC(C)(C)c1ccc(C(=O)NCc2ccc(Cl)cc2)cc1	-16	-6	1	7	10
Cc1ccc(-c2ccc(CCC(=O)O)o2)cc1	21	6	1	5	-4
CC1(C)CC(=O)C(C(c2ccccc2F)C2C(=O)CC(C)(C)CC2=O)C(=O)C1	-3	2	1	4	3
O=C(NC1CCCCC1)c1ccc(COCC(F)(F)F)o1	-12	5	1	0	3
CC(=O)N(C)/C=C1\Sc2ccccc2C1=O	-9	-1	1	7	7
COc1ccc(CCNc2nc(-c3ccco3)cc(C(F)(F)F)n2)cc1OC	-6	3	1	15	-21
CCOC(=O)N1CCN(Cc2nc(-c3ccc(Cl)cc3)no2)CC1	-14	9	1.2	4	-25
CCOc1ccccc1NC(=O)C1=C(C)NC(=O)NC1c1cccc(OC)c1OC (stereo unspecified)	-13	1	1.2	2	-17

4 entries from above, set out differently.
Results follow in this order: PLK1 kinase inh	EphB4 antag	PLAP act	Rev-RRE block	Plk1 PBD FP
CCCCCOC(=O)C1=C(C)Nc2nnnn2C1c1ccc(OC)c(OC)c1OC (stereo unspecified)
    -11	-10	1.4	10	-11
CC1(C)OC(=O)N(c2ccccn2)C1(C)O (stereo unspecified)
    -2	9	1	7	-10
Cc1ccc(C(c2nnnn2CC2CCCO2)N2CCN(C(=O)c3ccco3)CC2)cc1 (stereo unspecified)
    -8	-3	1.2	-4	8
NC(=O)C1(NC(=O)[C@@H]2CC3(CC(c4cccc(NC(=O)[C@@H]5CCC(=O)N5)c4)=NO3)CN2C(=O)c2cnccn2)CC1 (stereo partly specified)
    -9	-4	1.1	2	-11
